Compound activity deposited in PubChem BioAssay by National Center for Advancing Translational Sciences (NCATS).
2A StopGo: lowers the luciferase signal of an FMDV 2A StopGo reporter. human cells with a luciferase reporter of 2A StopGo recoding; control for the full effect not named in the record. Potency, µM (top dose mostly 57.9 µM), for inactives: top-dose signal change, negative = less light. 410,000 tested, 1.2% active; active = well fitted falling curve with a large enough effect; inconclusive = small, poorly fitted or top-dose-only effect; inactive = no such curve, though single readings can be large or run the other way; tested in HEK293T cells; also: % is scaled to controls: 0 for no effect and ±100 for the full control effect; nearly all actives have a fitted effect of over 45% in size; luciferase light after 4 h
Cruzain inh noDet: cruzain (T. cruzi) inhibition without detergent; purified cruzain, Z-FR-AMC fluorescence, no detergent; Potency, µM, inactives show max response, negative = inhibition, actives largely listed as inhibitors; 200,000 tested, 2.3% active; active = well fitted curve in the direction sought with a large enough effect; inconclusive = small, poorly fitted or top-dose-only effect, or another doubt; inactive = no such curve, though single readings can be large; an effect the other way counts as inactive or inconclusive;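 also: plate controls were enzyme without inhibitor for no effect and buffer without enzyme for full effect; nearly all actives have a fitted effect of over 40% in size; top concentration of the series not given in the record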
Target sequence (P25779 123-467 limits assumed): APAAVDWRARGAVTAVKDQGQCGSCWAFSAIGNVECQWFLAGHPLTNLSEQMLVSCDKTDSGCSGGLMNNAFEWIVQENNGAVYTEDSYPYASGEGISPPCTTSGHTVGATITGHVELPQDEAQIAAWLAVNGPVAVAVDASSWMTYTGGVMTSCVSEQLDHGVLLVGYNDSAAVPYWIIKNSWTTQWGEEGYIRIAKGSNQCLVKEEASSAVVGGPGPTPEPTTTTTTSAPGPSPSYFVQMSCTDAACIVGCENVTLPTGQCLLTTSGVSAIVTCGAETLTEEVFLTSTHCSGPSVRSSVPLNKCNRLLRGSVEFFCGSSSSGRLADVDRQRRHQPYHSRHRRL
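Purified cruzain at 1.5 nM, pre-incubated 15 min with compound at room temperature in 100 mM sodium acetate pH 5.5, 5 mM DTT, 0.00005% Triton X-100. Reaction started with 2 uM Z-FR-AMC; AMC fluorescence increase over 60 s gives rate.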
Lassa entry inh: blocks Lassa virus binding to or entry into cells; 300,000 tested, 1.2% active; Lassa virus pseudotype entry inhibition, cell reporter; control for the full effect not named in the record; Potency, µM (highest dose often 37.9 µM), for the others: top-dose activity change, negative = inhibition, hits mostly inhibitors; active means well fitted inhibition curve with a large enough effect; inconclusive means small, poorly fitted or top-dose-only effect, or effect the other way; inactive means flat fitted curve, though single readings scatter; tested in HEK293 cells; also: % is scaled to controls: 0 for no effect and ±100 for the full control effect; nearly all actives have a fitted effect of over 50% in size; luciferase read-out
RE007 growth inh: less growth of the S. pombe RE007 Vpr strain | S. pombe RE007 Vpr strain, BacTiter-Glo ATP luminescence, 24 h; control for the full effect not named in the record | Potency, µM (titrated, usually from 92.2 µM), for the others: at the highest dose activity change, negative = less growth | 360,000 tested, 0.21% active | AID 651644; active = well fitted falling curve with a large enough effect; inconclusive = small, poorly fitted or top-dose-only effect; inactive = no such curve, though single readings can be large or run the other way;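 also: % is scaled to controls: 0 for no effect and ±100 for the full control effect; nearly all actives have a fitted effect of over 50% in size; the assay follows cell death caused by Vpr and the record does not say whether a fall means rescue or toxicity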
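Fission yeast strain RE007, carrying one chromosomally integrated HIV-1 vpr copy, was seeded at OD 0.01 in PMG+AL medium with 23 nL pinned compound. After 24 h at 30 °C and 99% humidity, viability was read by BacTiter-Glo luminescence.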
Cruzain inh Det: cruzain (T. cruzi) inhibition with detergent. P25779. purified cruzain, Z-FR-AMC fluorescence, 0.01% Triton. Potency, µM, without a hit: max response, negative = inhibition, hits mostly inhibitors. 200,000 tested, 0.43% active; active = well fitted curve in the direction sought with a large enough effect; inconclusive = small, poorly fitted or top-dose-only effect, or another doubt; inactive = no such curve, though single readings can be large; an effect the other way counts as inactive or inconclusive;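 also: plate controls were neutral wells for no effect and buffer without enzyme for full effect; nearly all actives have a fitted effect of over 40% in size; top concentration of the series not given in the record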
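Z-FR-AMC hydrolysis (2 uM substrate) by cruzain (1.5 nM) monitored kinetically at ex 360/em 450 nm after 15 min room-temperature compound exposure; 0.01% Triton X-100, pH 5.5, 5 mM DTT.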
SARS PLP yeast: SARS-CoV PLP inhibition in yeast | S. cerevisiae expressing SARS-CoV PLpro, growth rescue; control for the full effect not named in the record | Potency, µM (titrated, usually from 32.9 µM), without a hit: top-dose activity, positive = growth rescue | 330,000 tested, 0.19% active; also: 0% is about no effect; nearly all actives have a fitted effect of over 55% in size; growth read by luminescence after 48 h
Marburg entry inh: Marburg virus entry inhibition; Marburg virus pseudotyped entry inhibition, cell reporter; control for the full effect not named in the record; about a third of the inactives were read at about 46 µM; Potency, µM (top dose mostly 37.8 µM), without a hit: top-dose activity change, negative = inhibition, most hits filed as inhibitors; 300,000 tested, 1.8% active; active = well fitted inhibition curve with a large enough effect; inconclusive = small, poorly fitted or top-dose-only effect, or effect the other way; inactive = flat fitted curve, though single readings scatter; tested in HEK293 cells; about a fifth of its hits are not listed in these tables; also: % is scaled to controls: 0 for no effect and ±100 for the full control effect; luciferase read-out
NS1 function inh: influenza NS1 inhibition; S. cerevisiae slowed by influenza A NS1, growth recovery by OD600; Potency, µM (doses to about 46.1 µM), for the others: at the top dose activity, positive = more growth; 270,000 tested, 0.4% active; AID 2326; also: actives are rising curves; nearly all actives have a fitted effect of over 50% in size
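OD600 was taken as the measure of yeast growth restored by compound in an NS1-expressing S. cerevisiae strain. Cells had been washed out of glucose medium and diluted 1:100 into galactose -URA medium, pH 6.0.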
* = called active by the depositor; ? = inconclusive; / = no result given; & = joins results of further samples; [ ] = another dose, or the depositor's remark. Unless noted, calls follow the shape of the dose curve; as a rule, active means well fitted rising curve with a large enough effect; inconclusive means small, poorly fitted or top-dose-only effect; inactive means no such curve, though single readings can be large or run the other way. Potency is read from the fitted curve at half-maximal effect.

SMILES	2A StopGo	Cruzain inh noDet	Lassa entry inh	RE007 growth inh	Cruzain inh Det	SARS PLP yeast	Marburg entry inh	NS1 function inh
O=C(CSc1ncnc2sc3c(c12)CCCC3)NC1CCS(=O)(=O)C1 (stereo not given)	-19.6%	/	-17.3%	-6.1%	/	7.1%	5.1%	/
CC1Cn2c(C(=O)NCc3ccccc3Cl)cc3cccc(c32)S1 (stereo not given)	3.7%	?	-16.1%[46.1 µM]	/	-9.7%	/	/	/
COc1ccc(CNC(=O)C(CCSC)NS(=O)(=O)c2ccccc2F)cc1 (stereo not given)	10.2%	/	?	-10.4%	/	1.1%	-11.5%[46.1 µM]	/
COc1ccc(-c2cc(N)n(S(=O)(=O)c3c(F)c(F)c(F)c(F)c3F)n2)cc1OC	?	-2.2%	?	14.8%	-13.8%	-22.8%	2.31µM*	-95.3%
Cc1nn(C)c(C)c1CN(C)C(=O)c1cc2nc(-c3ccco3)cc(C(F)(F)F)n2n1	-28.5%	?	-1.2%	-6.0%	1.5%	1.4%	-8.8%&-8.8%	-6.3%
Cc1cc(Cl)c(S(=O)(=O)Nc2ccc3c(c2)OCCO3)cc1OCC(N)=O	?	-9.3%	10.4%	10.0%	-0.4%	1.0%	2.3%[46.1 µM]	-1.1%
COc1ccccc1CNC(=O)/C=C/c1ccc(Br)o1	1.3%	/	-7.0%	-18.0%	/	-1.5%	18.2%	/
O=C(CN1C2CCCC1CC(NC(=O)c1ccco1)C2)Nc1ccccc1C(F)(F)F (stereo not given)	?	2.7%	?	10.3%	-0.6%	-0.1%	?	-11.6%
CN(C)CCNC(=O)CCn1nc(-c2ccc(Cl)cc2)ccc1=O	-18.0%	/	3.1%[46.1 µM]	-5.3%	/	-0.7%	-1.0%[46.1 µM]	2.7%
COc1ccc2c(c1)C(=O)[C@H](O)[C@@H](c1ccc(OC)c(Br)c1)O2	20.8%	1.8%&3.9%	?	37.8%	-1.1%&-6.2%	-13.5%	-43.5%	-28.4%
NNC(=O)CC12CC3CC(C1)CC(n1ncnn1)(C3)C2	-2.5%	-10.6%	-18.4%	7.5%	-1.1%	-5.8%	?	5.5%
Cc1ccc(NS(=O)(=O)c2ccc(CCC(=O)N3CCCC3)cc2)cc1	45.8%[activator]	/	-21.6%	-12.2%	/	0.8%	1.2%[46.1 µM]	-6.6%
Cc1cccc(N2CCN(C(=O)c3cnc4c(C)cccn4c3=O)CC2C)c1 (stereo not given)	-26.0%	0.6%	21.0%[46.1 µM]	/	-4.5%	/	/	/
CCN(CC)CCNC(=O)c1ccc(NC(=O)c2ccc(S(=O)(=O)N3CCCCCC3)cc2)cc1	8.7%	/	5.7%	2.8%	/	17.4%	?	/
CN(C(=O)c1sc2nc(N3CCOCC3)c3c(c2c1N)CCCC3)c1ccccc1	?	/	3.55µM*	15.1%	/	-0.1%	?	/
C=CCOC(=O)c1[nH]c2c(c1C)C(=O)CC(c1ccco1)C2 (stereo not given)	5.9%	-9.6%	/	0.2%	-6.9%	-9.7%	/	-12.1%
CCOC(=O)c1c(C)[nH]c(C)c1S(=O)(=O)NCCN1CCN(c2ccccc2F)CC1	42.5%[activator]	/	?	-10.5%	/	2.6%	-13.9%[46.1 µM]	-19.1%
Cc1ccccc1C1NC(c2ccccc2C)C([N+](=O)[O-])C(C)(C)C1[N+](=O)[O-] (stereo not given)	-20.5%	/	0.2%[46.1 µM]	4.9%	/	0.4%	?	4.7%
COc1ccc(-c2oc3ncn(CCN4CCOCC4)c(=N)c3c2-c2ccc(OC)cc2)cc1	?	0.4%	?	0.8%	-0.5%	-7.0%	16.4µM*	-9.6%
COc1cccc(CNC(=O)c2ccc3c(c2)N(C)CCS3)c1OC	3.9%	/	/	9.2%	/	-0.4%	/	0.2%
CCOC(=O)C1(CCc2ccccc2)CCN(C2Cc3ccccc3C2)CC1	?	/	-11.8%	-6.8%	/	-0.8%	-20.2%[46.1 µM]	2.3%
Clc1ccc(C2Nc3cccc4cccc(c34)N2)cc1Cl	9.1%	/	/	-6.6%	/	1.7%	/	22.5%
CCN(CC)C(=O)CSc1nc2c(sc(=S)n2-c2ccccc2)c(=O)n1-c1ccccc1OC	-8.5%	/	?	1.7%	/	-0.6%	?	15.5%
CC(=O)NC(Cc1ccc(F)cc1)C(=O)NC1CCN(C(=O)Nc2cccc(C)c2)CC1 (stereo not given)	7.9%	/	8.3%[46.1 µM]	7.1%	/	1.0%	1.1%[46.1 µM]	-5.5%
Cc1ccc(F)cc1CNC(=O)C1CCC(=O)N(CCc2ccccc2)C1 (stereo not given)	5.7%	/	/	4.5%	/	-1.3%	/	-11.1%
CCOc1ccccc1N=NC1C(=O)N(C(N)=S)N=C1C (stereo not given)	-3.6%	/	/	-11.3%	/	0.9%	/	9.8%
Cc1ccc(-c2noc(C3CCCN(C(=O)c4ccccc4)C3)n2)o1 (stereo not given)	27.7%	10.2%	?	-2.6%	5.2%	0.5%	0.1%	-7.5%
CCC1=NC(c2ccccc2)N(O)C1(C)C (stereo not given)	-0.7%	-8.8%	-0.3%	9.1%	-0.2%	-2.0%	2.5%	4.5%
CC(C)CC(=O)N1CCN(Cc2ccccc2[N+](=O)[O-])CC1	-15.2%	/	20.4%	0.6%	/	-0.3%	-6.2%[46.1 µM]	5.5%
CC1C/C(=N\NC(=O)c2ccc([N+](=O)[O-])cc2)CC(C)(C)C1 (stereo not given)	-10.5%	/	/	-16.1%	/	-0.1%	/	4.9%
COc1ccc(Cl)cc1NC(=O)c1c(-c2ccccc2)noc1C	-31.1%	-6.7%	-1.3%	-6.4%	-0.2%	5.3%	?	13.2%
CCOC(=O)C1=C(C)NC(C)=C(C(=O)OCC)C1C(=O)OCC(=O)NC	-7.4%	/	?	-9.6%	/	-4.6%	0.8%	/
CC1=C(C(=O)NC2CCCC(C)C2C)C2(CCCCC2)OC1=O (stereo not given)	-23.2%	17.0%	/	9.8%	1.4%	21.7%	/	23.1%
Cc1nc(N2CCOCC2)c2c(C)c(C(=O)Nc3ccc(F)cc3Cl)sc2n1	0.8%	/	?	0.7%	/	-4.3%	1.1%[46.1 µM]	/
COc1ccc(C(=O)Nn2c(C)nc3ccccc3c2=O)cc1OC	-17.2%	/	/	22.6%	/	0.3%	/	1.8%
CSc1nnc2c(n1)c(C)nn2-c1ccc(C)cc1	57.2%[activator]	-6.6%	-0.9%	-8.2%	2.2%	2.7%	10.0%	14.9%
CCOC(=O)c1cc(-c2nnc(SCC(=O)Nc3ccc(F)cc3)o2)c(C)nc1C	-3.3%	-1.9%	?	2.3%	-4.5%	-8.6%	4.0%	-7.0%
Cc1ccn2c(Nc3ccc4c(c3)OCCO4)c(-c3ccc(C)s3)nc2c1	0.0%	18.5%	-23.8%[46.1 µM]	/	0.9%	/	?	/
Cn1c(=O)c(C(N)=S)cn(-c2ccccc2)c1=O	-13.7%	/	/	-9.4%	/	0.0%	0.3%	2.6%
COC(=O)c1cc(NC(=O)CN2C(=O)CSC2=O)ccc1Cl	0.6%	-3.3%	-2.9%	0.7%	-1.4%	-2.1%	?	2.2%
COc1ccccc1N1CCN(C(=O)CSc2ccc3c(C)cc(C)nc3n2)CC1	-2.8%	12.5%	?	-24.4%	-7.5%	11.6%	/	-11.2%
Cc1cccnc1NC(=S)Nc1ncccc1C	23.8%	/	?	10.6%	/	-3.6%	?	-0.5%
COc1ccc(CCNC2CCN(C)CC2)cc1OC	-23.3%	-3.4%	-12.1%	-2.4%	0.1%	-20.6%	?	-4.6%
Clc1cc(Br)ccc1OCCN1CCOCC1	-4.5%	0.9%	0.9%	-12.8%	-1.8%	2.8%	?	-2.8%
CC12CC3CC(C)(C1)CC(NCc1ccncc1)(C3)C2	2.4%	/	-10.4%	4.8%	/	2.4%	-0.9%	/
CCOc1ccc(NC(=O)COc2cccc3c2CCN(Cc2cccnc2)C3=O)cc1	-17.7%	/	-1.2%	-8.5%	/	4.9%	?	4.5%
CCc1ccccc1NC1=NCC(=O)N1C1CCCCC1	-10.2%	-0.1%	17.0%	18.7%	0.5%	-17.8%	-22.4%	-8.0%
O=C(COc1ccc(Br)cc1CNCCCN1CCOCC1)Nc1ccccc1	-8.8%	-5.1%	?	0.0%	-2.9%	-2.3%	?	2.8%
CSCCC1NC(=O)N(CC(=O)Nc2ccc(N3CCCCC3)cc2)C1=O (stereo not given)	11.6%	9.3%	-0.3%	-9.5%	1.2%	-2.8%	-9.6%[46.1 µM]	-1.9%
CCOc1ccc(-c2cc3c(=O)n(Cc4nc(-c5ccc(OCC)c(OC)c5)oc4C)ccn3n2)cc1Cl	19.9%	0.2%	21.8%[46.1 µM]	/	-0.9%	/	8.9%[46.1 µM]	/
Cc1ccc(CNc2ncnc3c2cnn3-c2ccc(Cl)cc2)cc1	?	-6.5%	1.5%[46.1 µM]	/	1.2%	/	/	/
COC(=O)c1ccccc1NC(=O)CSc1nc2ccccc2c(=O)[nH]1	-5.2%	-23.4%	-18.9%	16.4%	3.0%	6.4%	-28.7%[46.1 µM]	13.1%
CCC(C)[C@H](NC(=O)N1CCCCCC1)C(=O)OC (stereo not given in full)	-4.9%	/	/	-12.1%	/	-0.5%	/	0.4%
NS(=O)(=O)c1cccc(NC(=O)COC(=O)/C=C/c2nc3ccccc3s2)c1	29.5%	/	8.8%[46.1 µM]	4.4%	/	10.3%	11.1%[46.1 µM]	/
CCn1c(/C=C/c2c(C)[nH]c3ccccc23)nc2ccccc2c1=O	6.1%	-26.6%	3.6%	1.1%	-2.3%	16.9%	?	8.6%
CCOc1nc(N2CCOCC2)nc(C)c1[N+](=O)[O-]	-6.8%	3.9%	?	7.1%	-5.5%	2.8%	?	5.2%
